Source: PubChem BioAssay
VACV mCherry inh: vaccinia inhibition (mCherry reporter). Potency, µM (titrated, usually from 36.5 µM), for the others: at the highest dose activity change, negative = inhibition, most hits filed as inhibitors. Vaccinia virus mCherry reporter infection, fluorescence; about a quarter of the inactives have no number. hit rate 0.63% among 310,000; active = well fitted inhibition curve with a large enough effect; inconclusive = small, poorly fitted or top-dose-only effect; inactive = no such curve, though single readings can be large or run the other way; tested in A549 cells; also: nearly all actives have a fitted effect of over 35% in size; inactives centre near -10
VACV Venus inh: vaccinia inhibition (Venus reporter); Vaccinia virus Venus reporter expression, fluorescence; Potency, µM (series often up to 36.5 µM), without a hit: at the top dose activity change, negative = inhibition, most hits filed as inhibitors; hit rate 0.46% among 330,000; AID 720580; active means well fitted inhibition curve with a large enough effect; inconclusive means small, poorly fitted or top-dose-only effect; inactive means no such curve, though single readings can be large or run the other way; tested in A549 cells; also: nearly all actives have a fitted effect of over 30% in size; inactives centre near -10
Starred values were filed as active, the others as inactive; i = inactive; u = inconclusive; x = no result given; [ ] = dose if it differs, or a comment. % is scaled to controls: 0 for no effect and ±100 for the full control effect; potency is read from the fitted curve at half-maximal effect.

SMILES	VACV mCherry inh	VACV Venus inh
C#CCN(Cc1ccco1)C(=O)c1cc(COc2cccc3cccnc23)on1	i	-15.6%
CNC(=O)c1ccsc1NC(=O)c1ccc(S(=O)(=O)N2CCOCC2)cc1	-18.1%	-10.1%
Cc1ccc(CC(=O)NCc2nc(-c3ccccc3)no2)cc1	-8.4%	-7.6%
CCCCNC(=O)N(O)C1N(/N=C/c2ccccc2OC)C(=S)SC1(C)C (centres undefined)	-2.5%	-15.1%
CCc1nnc(NC(=O)CSc2nnc3ncccn23)s1	-2.3%	-16.1%
COc1ccccc1OCCNC(=O)C1CCCCC1	i	-13.1%
Cc1cc[n+](CC(=O)c2ccc3c(c2)OCCO3)cc1	-7.1%	3.0%
CC1CC(C)CN(C(=O)C2CCCN(S(=O)(=O)c3cnc[nH]3)C2)C1 (centres undefined)	-12.0%[7.34 µM]	3.0%[7.34 µM]
COC(=O)c1cc(S(=O)(=O)NCc2ccc(S(N)(=O)=O)cc2)oc1C	-11.9%[7.34 µM]	-14.5%[7.34 µM]
CC(C)S(=O)(=O)N1CCCC(c2cc(C(=O)NCc3ccccc3)no2)C1 (centres undefined)	7.8%	0.6%
CC(C)c1ccc(S(=O)(=O)N2CCN(C(=O)[C@@H]3CCCN3C(=O)c3cccs3)CC2)cc1	i	-12.1%
Oc1c(CN2CCOCC2)cc(CN2CCOCC2)c(O)c1CN1CCOCC1	-10.5%	17.3%
CCOC(=O)CCC(=O)N(CCN(C(=O)CCC(=O)OCC)c1ccccc1)c1ccccc1	i	-15.3%
CC(=O)c1cccc(-c2ccc3c(c2)C(C)(Cc2ccccc2C#N)C(=O)N3)c1 (centres undefined)	-12.0%	-22.4%
CC1CCN(S(=O)(=O)c2cn(CC(=O)N3CC(C)CC(C)C3)c(=O)c3ccccc23)CC1 (centres undefined)	-10.4%	-11.6%

Continued; it opens with the two that closed the last part.
SMILES	VACV mCherry inh	VACV Venus inh
CC(=O)c1cccc(-c2ccc3c(c2)C(C)(Cc2ccccc2C#N)C(=O)N3)c1 (centres undefined)	-12.0%	-22.4%
CC1CCN(S(=O)(=O)c2cn(CC(=O)N3CC(C)CC(C)C3)c(=O)c3ccccc23)CC1 (centres undefined)	-10.4%	-11.6%
Cc1nn(C)c(C(=O)NC(=S)Nc2ccccc2O)c1Cl	u	-5.9%
NS(=O)(=O)c1ccc(NC(=O)/C=C/c2ccccc2Cl)cc1	-13.1%	11.5%
CN1CCC(=NNC(=O)C(=O)Nc2ccccc2)CC1	-12.4%	-4.7%
O=C(C[n+]1ccc(C(=O)c2ccccc2)cc1)Nc1cccc([N+](=O)[O-])c1	-1.9%	-1.6%
CC(C)Nc1ncnc2ccc(Br)cc12	u	u
COc1ccccc1NC(=O)c1sc2nc(C)c(C(=O)Nc3ccc(C)cc3C)c(-c3cccs3)c2c1N	-10.8%	1.1%
CC1(C(=O)Nc2cnc3ccccc3c2)CCN1Cc1ccc(OC(F)(F)F)cc1 (centres undefined)	-24.8%	-18.0%
COc1ccccc1CNC(=O)C1CCC(CNS(=O)(=O)c2ccc(C)cc2)CC1 (centres undefined)	-0.7%	-16.6%
CCCN(CC(=O)Nc1ccc(F)c(F)c1F)C(=O)c1ccc2c(=O)n3c(nc2c1)CCC3	i	-16.3%
O=C(CCCN=C1NS(=O)(=O)c2ccccc21)OCc1ccc(F)cc1	-0.6%	-24.4%
CC(=O)N1CCN(S(=O)(=O)c2cccc(C(=O)N(Cc3ccccc3)c3cccc(C)c3)c2)CC1	i	-21.6%
Cc1ccc(-c2nnc(SCC(=O)N3CCOCC3)nc2-c2ccc(C)cc2)cc1	x	-28.4%
COc1ccc(COC(=O)C2=C(C)NC(=O)CC2c2cccc(Cl)c2Cl)cc1 (centres undefined)	6.1%	-0.6%
Cc1cc([N+](=O)[O-])nn1CC(=O)N/N=C/c1ccccc1Br	-3.9%	-1.1%
Cc1cc(Br)ccc1NC(=O)CNC(=O)c1ccc(-n2cncn2)c([N+](=O)[O-])c1	-8.7%	-16.6%
O=C(c1ccc(Cl)c(S(=O)(=O)N2CCCCC2)c1)N1CCCCC1	-4.6%	-6.2%
CCN(CC)CCN(C(=O)c1ccc2ccccc2c1)c1nc2ccc(F)cc2s1	i	-15.1%
COC(=O)C1CCN(C2CC(=O)N(c3cc(C)cc(C)c3)C2=O)CC1 (centres undefined)	-3.3%	-9.2%
CC(C)(C)CN1CCN(CCCc2ccccc2)C(CCO)C1 (centres undefined)	i	-13.5%
CC(=O)N[C@@H](Cc1ccc(O)cc1)CN1C(N)=NC[C@@H]1CC(C)C	i	-1.5%
COc1ccc(Cn2ccc3nc(C)c(C(=O)Nc4cc(C)cc(C)c4)cc3c2=O)cc1	-4.5%	-4.0%
O=C(Nc1ccc(Oc2ccccc2)cc1)C1CCCN(c2ncccn2)C1 (centres undefined)	-5.8%	-6.9%
CCOc1ccc(CCNC(=O)c2cc(S(=O)(=O)N3CCOCC3)ccc2C)cc1OCC	i	-6.8%
CCCCn1c(SCC(=O)c2ccc(O)c(O)c2)nc2ccsc2c1=O	22.4µM*	u
CC1=C(C(N)=O)C(c2cccc(O)c2)n2ncnc2N1 (centres undefined)	-5.4%	2.7%
CCCC(C)c1nnc(NC(=O)CS(=O)(=O)Cc2ccccc2)s1 (centres undefined)	-5.7%	-10.6%
Cc1cccc(C(=O)N2CCC(=O)N(C(COCc3cccc(C(F)(F)F)c3)Cc3ccccc3)CC2)c1 (centres undefined)	i	-27.2%
CN(CCc1ccccn1)S(=O)(=O)c1ccc2c3c(cccc13)C(=O)N2	-21.2%	-6.7%
O=C(CNC(=O)c1ccc(F)cc1)OCc1cc(=O)n2ccsc2n1	-3.7%	-11.3%
COc1ccc2c(c1)CC(C(=O)NCCN1CCN(c3cccc(Cl)c3)CC1)CO2 (centres undefined)	-12.3%	-9.3%
O=C(O)Cc1ccc(NC(=S)NCc2ccco2)cc1	-9.1%	4.8%
CC(C)CCC(O)(CCC(C)C)C(=O)NN1CCCCC1	-16.2%	4.5%
Cc1cc(C)c2c(c1)OC(=O)CC2c1ccccc1C (centres undefined)	-1.9%	-1.7%
COC(=O)c1ccccc1NN=Nc1ccccc1[N+](=O)[O-]	i	16.2%
CC1=C(C(=O)N(C(C)C)C(C)C)CC(CC(=O)NCc2ccco2)C(=O)N1CCCN1CCCC1=O (centres undefined)	i	-1.8%
COc1ccc(NC(=O)Cc2coc3cc(C)cc(C)c23)c(OC)c1	-2.4%	-1.9%
Cc1cc(C)c2cc(C#N)c(SCC(=O)NCc3ccco3)nc2c1	-18.5%	-26.9%
CC12CCC(C(=O)NCc3ccc4c(c3)OCO4)(OC1=O)C2(C)C (centres undefined)	x	-22.2%
COc1cccc(NC(=O)c2ccc(NCCCN3CC(C)CC(C)C3)c([N+](=O)[O-])c2)c1 (centres undefined)	-10.2%	-2.8%
CCCC[C@@H]1C[C@H]1[C@@H](NC(=O)c1ccco1)c1ccc(C(=O)OC)cc1	i	-10.8%
C=C(C)CC(Nc1ccc(OC)cc1)c1ccco1 (centres undefined)	-20.8%	-0.3%
CCOC(=O)N1CCN(S(=O)(=O)c2ccc(C(=O)NNc3nc4cc(C)cc(C)c4s3)cc2)CC1	12.6µM*	u
Cc1cc(C(=O)NCC(C)C)c2ccccc2n1	-3.2%	-5.0%
Cc1ccc(NC(=O)C(=O)NCCCN2CC(C(=O)O)CC2=O)cc1 (centres undefined)	-17.8%	5.0%
CCCS(=O)(=O)NCCc1sc2nc(-c3ccc(F)cc3)nn2c1C	u	u
COc1ccc2cc(CN(CC3CCCO3)C(=S)Nc3ccccc3)c(=O)[nH]c2c1 (centres undefined)	-13.2%	u
CC(NC(=O)COC(=O)c1cccs1)c1ccccc1 (centres undefined)	-4.2%	-18.6%
Cc1cc(NC(=O)c2noc3c2CCc2ccccc2-3)no1	-14.6%	5.0%
CC1CN(C(=O)CSc2nnc(NC(=O)NC(C)(C)C)s2)CC(C)O1 (centres undefined)	-10.1%	-7.9%
O=C(CN(CC1CCCO1)C(=O)CNS(=O)(=O)c1ccccc1)NCc1ccco1 (centres undefined)	1.2%	0.0%
c1ccc(CSc2ccc3nnc(-c4ccccn4)n3n2)cc1	-0.9%	7.9%
CNC(=S)N(CCc1c(C)[nH]c2ccccc12)Cc1cc(OC)c(OC)c(OC)c1	-15.4%	-14.7%
CCCCC(=O)N/N=C/c1c(O)n(CCCC)c(=S)[nH]c1=O	i	-13.3%
CC(C)c1ccc(N2CCN(C(=O)c3ccccc3NC(=O)/C=C\C(=O)O)CC2)cc1	x	8.8%
O=C(NCc1ccccn1)Nc1ccc(Cl)cc1	8.9%	13.7%
COc1ccc2cc(C(=O)C3CCCN(C(=O)c4csnn4)C3)ccc2c1 (centres undefined)	-0.7%	-17.8%
CN1C(=O)N(c2cccc3ccccc23)C(n2cncn2)C1(C)C (centres undefined)	i	-18.9%
CNC(=O)C1CCC(Cn2c(=O)c3sccc3n(CC(=O)N3CCCCC3C)c2=O)CC1 (centres undefined)	-8.3%	1.6%
O=C(C1CCN(Cc2ccc(F)cc2)CC1)N1CCN(C/C=C/c2ccccc2)CC1	-14.3%	-21.7%
N#C/C(C(=O)NCc1ccco1)=C1/SC(Cc2ccc(F)cc2)C(=O)N1c1ccccc1 (centres undefined)	x	13.1%

Compound profiles, from the list above. Values in the order: VACV mCherry inh	VACV Venus inh
Profile of CC(C)CCC(O)(CCC(C)C)C(=O)NN1CCCCC1 : -16.2%	4.5%
Profile of Cc1ccc(NC(=O)C(=O)NCCCN2CC(C(=O)O)CC2=O)cc1 (centres undefined) : -17.8%	5.0%
Profile of O=C(CCCN=C1NS(=O)(=O)c2ccccc21)OCc1ccc(F)cc1 : -0.6%	-24.4%
Profile of CCCCn1c(SCC(=O)c2ccc(O)c(O)c2)nc2ccsc2c1=O : 22.4µM*	u
Profile of CCN(CC)CCN(C(=O)c1ccc2ccccc2c1)c1nc2ccc(F)cc2s1 : i	-15.1%

Next section.
SMILES	VACV mCherry inh	VACV Venus inh
COc1ccc(CCNC(=O)CCCn2c(=O)c3ccccc3n(CC(=O)Nc3cc(Cl)ccc3C)c2=O)cc1OC	-17.6%	-10.4%
Cc1nc(N)c(C#N)c(-c2ccccc2Cl)c1C	x	-18.6%
COc1ccccc1CCNC(=O)C(=O)NCC1OCCN1S(=O)(=O)c1ccc(Cl)cc1 (centres undefined)	u	-29.7%
CCOC(=O)c1c(C)[nH]c(C)c1S(=O)(=O)NCC(=O)NCc1ccccc1C	-15.8%	-5.7%
CCC1(c2ccccc2)NC(=O)N(CC(=O)NNC(=O)CCN2CCN(c3ccccc3)CC2)C1=O (centres undefined)	-1.4%	-17.8%
C=CCc1cccc2cc(C(=O)N3CCN(c4ccccn4)CC3)c(=O)oc12	-14.1%	-1.7%
O=C(N/N=C/c1ccco1)c1csc2c1CCCC2	-12.3%	0.9%
CC(NC(=O)/C=C/c1ccc(Br)cc1)c1ccc(Cl)cc1 (centres undefined)	-11.8%	-2.7%
O=C(Nc1ccc(F)cc1F)Nc1ccc(F)cc1F	i	8.9%
COc1ccc(-c2nc3ccccc3n2Cc2ccc(C(C)C)cc2)cc1	3.5%	8.3%
Cc1ccc(C(=O)NCC(=O)OCc2cc(=O)n3nc(C4CC4)sc3n2)cc1	0.6%	-7.0%
Nc1ncccc1OCc1cccc(C(F)(F)F)c1	i	-19.2%
O=C(CN1C(=O)NC2(CCCCC2)C1=O)N1CCN(S(=O)(=O)c2cccc([N+](=O)[O-])c2)CC1	-10.1%	-20.9%
O=S(=O)(Nc1cc(F)ccc1F)c1cccc2nonc12	-10.2%	-10.7%
COc1ccc(NS(=O)(=O)c2cc(NC(=O)CCNC(C)=O)ccc2N2CCOCC2)cc1	-7.8%	-4.6%
COc1cccc(-c2c(-c3cc(OC)cc(OC)c3)n(C)c3ccc(-c4cnc(OC)nc4)cc23)c1	-12.0%	-26.7%
Cc1nccn1CCc1n[nH]c(=S)n1Cc1ccccc1	x	3.7%
COCCNC(=O)C1CCCN(C(=O)c2sc(-c3ccccc3)nc2C)CC1 (centres undefined)	5.9%	-0.8%
CC(=O)N1CCOc2ccc(S(=O)(=O)N3CCC(C(=O)Nc4ccccc4F)CC3)cc21	i	-14.1%
CCc1ccc(NC(=O)Cn2c(=O)n(-c3ccc(Cl)c(Cl)c3)c(=O)c3c(C)c(C)sc32)cc1	-2.2%	-2.6%
Cc1cccc(NCc2ccccc2O)n1	-11.9%	-1.0%
Cc1c(C(=O)N2CCCc3ccccc32)sc2nc(-c3ccccc3)cn12	5.2%	-23.8%
CC(=O)N1CCN(c2nc(-c3cccs3)nc3ccccc23)CC1	-11.4%	-18.7%
Cc1occc1-c1nnc(SCC(=O)NCC2CCCO2)n1C (centres undefined)	4.5%	-2.4%
Cc1ccc(C)c(NC(=O)C2C3CCCC2C3c2ccccc2)c1 (centres undefined)	i	-9.4%
CC(C)NC(=O)CSc1nnc(CNC(=O)OC(C)(C)C)n1C	-4.1%	-3.0%
O=C(Nc1cc(Br)ccc1O)c1cc(-c2ccc3c(c2)OCO3)on1	i	-12.0%
O=C(COC(=O)c1ccc(O)cc1O)Nc1nnc(-c2ccccc2)o1	i	-6.7%
CN(C)c1ccc(/C=C2\C=Cc3ccccc32)cc1N	i	-13.1%
Cc1nc(C(C)NC(=O)CCc2nnc(CCCc3ccccc3)o2)c(C)s1 (centres undefined)	-13.1%	-6.9%
CC12CCC(C(=O)N(CSC(=S)N/N=C\c3ccccc3O)C1=O)C2(C)C (centres undefined)	x	-17.8%
Cc1ccc(F)cc1NCC(=O)Nc1ccc(Br)cc1	-17.6%	-10.8%
